Screens from PubChem BioAssay.
MenB inh = Mtb MenB enzyme inhibition. inhibition, %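 (about 12 µg/mL by stock and volumes)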. MenB enzyme assay, absorbance read-out; some hits fall short of the stated cut. P9WNP5. 100,000 compounds, 0.43% hits;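 active = mean of two replicates above 30%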;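 also: 0% = no compound and 100% = wells with inactive enzyme; the first replicate is given; strong numbers were not always called active; inactives centre near -10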
Target sequence (P9WNP5 whole entry, looked up): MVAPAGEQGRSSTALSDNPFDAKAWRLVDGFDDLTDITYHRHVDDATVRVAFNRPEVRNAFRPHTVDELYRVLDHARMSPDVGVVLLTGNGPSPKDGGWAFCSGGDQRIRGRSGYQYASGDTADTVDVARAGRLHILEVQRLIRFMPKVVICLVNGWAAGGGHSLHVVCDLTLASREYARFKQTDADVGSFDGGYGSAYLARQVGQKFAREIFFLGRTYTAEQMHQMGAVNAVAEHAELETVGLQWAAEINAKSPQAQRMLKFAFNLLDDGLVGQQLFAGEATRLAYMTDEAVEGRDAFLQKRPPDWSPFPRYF
PV pol inh = poliovirus RNA polymerase inhibition | P03300 | poliovirus polymerase elongation, fluorescence polarization; stronger effect = lower value | % elongation, % (compound at 16.7 µg/mL) | 150,000 compounds, 0.66% hits | AID 588519; in the data active = % elongation below about 90%; also: some results filed as inactive read as strong as hits
Mtb MbtI inh = blocks the Mycobacterium tuberculosis siderophore enzyme MbtI; 100,000 compounds, 0.89% hits; purified MbtI enzyme, fluorescence intensity read-out; inhibition, %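 (about 17 µg/mL by stock and volumes)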; P9WFX0;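 active = above 50% in both replicates, above 80% if mildly self-fluorescent; inactive = the rest, strongly fluorescent compounds included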;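 also: 0% = mean of negative and 100% = mean of positive controls; one replicate is shown; some compounds called inactive have numbers as strong as hits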
Target sequence (P9WFX0 whole entry, looked up): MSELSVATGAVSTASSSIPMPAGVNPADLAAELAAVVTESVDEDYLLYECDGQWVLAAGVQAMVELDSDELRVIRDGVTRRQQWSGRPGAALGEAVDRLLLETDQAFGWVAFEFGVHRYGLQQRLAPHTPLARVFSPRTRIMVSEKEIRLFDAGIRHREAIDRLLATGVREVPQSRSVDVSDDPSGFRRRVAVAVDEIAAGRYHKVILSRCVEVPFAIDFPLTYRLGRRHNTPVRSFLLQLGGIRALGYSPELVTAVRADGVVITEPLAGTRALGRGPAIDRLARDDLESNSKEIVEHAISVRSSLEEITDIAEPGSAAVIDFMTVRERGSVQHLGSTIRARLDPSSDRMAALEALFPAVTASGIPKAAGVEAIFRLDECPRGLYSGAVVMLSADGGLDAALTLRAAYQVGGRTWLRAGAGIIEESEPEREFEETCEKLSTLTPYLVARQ
PV pol inh intensity = recorded beside PV pol inh, whose call it bears; % elongation; measured here: total intensity read-out; formula for this scale not given here;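 total fluorescence in place of polarization; lower means less elongation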
* hit, by the source's call; . = no result given; & = joins results of further samples.

SMILES	MenB inh	PV pol inh	PV pol inh intensity	Mtb MbtI inh
CN1C(=O)/C(=C\c2c(Cl)nc3sccn23)N(C)C1=S	-96	118	128	11
O=C(Cn1ncc2ccccc21)Nc1ccc(Br)cc1F	7	102	102	-2
O=C(N/N=C/c1ccccc1)c1cccc(S(=O)(=O)N2CCCC2)c1	-18	99	103	4
CN(C(=O)c1ccc(NC(=O)c2ccco2)cc1)C1CCCCC1	-31	100	102	16
CN(Cc1ccccc1)C(=O)COC(=O)c1ccc(Cl)c(N)c1	.	101	103	56
S=c1[nH]cc(-c2ccccc2)n1-c1ccccc1	-77	104	110	5
C=C(C)Oc1ccccc1OCC(=O)C(C)(C)C	.	102	106	-6
CCn1cc(C(=O)NCCC2=CCCCC2)c2cc(OC)c(OC)cc2c1=O	-12	99	102	3
COc1cc(CCN2C(=O)CCC2(C)C(=O)N2CCCC2)cc(OC)c1OC (configuration not stated)	1	102	104	-1
O=C(Cc1ccccc1)N/N=C/c1ccncc1	25	100	103	19
O=C(CN1C(=O)/C(=C\c2ccc(F)cc2)Oc2ccccc21)N1CCCC1	-4	102	101	81
COC(=O)c1sc(N)c(C(=O)OC)c1Cn1c(Cl)nc2c1c(=O)n(C)c(=O)n2C	-20	108	109	18
CCCC1CCC(c2ccc(OC(=O)c3cccnc3)cc2)CC1 (configuration not stated)	2	101	105	-4
O=C(CSc1nnnn1Cc1ccccc1)Nc1ccccc1Oc1ccccc1	-23	104	103	.
CC(C)c1ccc2nc(SCC(=O)NC(C)(C)C)c(C#N)cc2c1	17	104	112	-7
Cc1cccc(NC(=O)C2CCN(c3ccc(-c4cccs4)nn3)CC2)n1	5	98	102	4
Cc1nc2c3ccccc3n3c(CCCC(=O)O)nnc3n2n1	-15	96	96	-8
CC1=NN2C(=NC(=O)C(n3nnnc3C)C2c2ccccc2)O1 (configuration not stated)	-39	100	95	-4
COc1ccccc1N1C(=O)C=C(Nc2ccccc2)C1=O	-106	102	104	-3
Cc1cc2cc(C#N)c(N3CCOCC3)nc2cc1Cl	-32	100	102	-5
O=C(c1cccs1)N1CCN(c2cc(C(F)(F)F)nc3ccccc23)CC1	2	106	101	-2
Cn1cnc2c1c(=O)[nH]c(=O)n2C	-11&1	104&103	100&101	-7&-12
Cc1cccc(NC(=O)CCOc2ccccc2)c1	-6	101	96	-4
c1ccc(-c2[nH]ncc2CNCc2cccs2)cc1	1	102	98	-14
Cc1cc(NNS(=O)(=O)CC23CCC(CC2=O)C3(C)C)nc2ccccc12 (configuration not stated)	-10	111	126	14
CCOC(=O)c1ccccc1NC(=O)COC(=O)C(C)N=C1NS(=O)(=O)c2ccccc21 (configuration not stated)	-4	103	108	2
O=C(NCc1ccco1)N1c2ccccc2Sc2ccccc21	7	102	104	-9
Cn1ncnc1C(O)(c1c[nH]c2ccccc12)C(F)(F)F (configuration not stated)	-25	108	116	-11
CCOC(=O)c1ccc(NC(=S)NC(C)c2ccc3c(c2)OCCO3)cc1 (configuration not stated)	-23	54*	59*	-1
CCc1ccc(NS(=O)(=O)c2cnn(CC)c2)cc1	-13	103	104	-26
C(#CCN1CCCC1)CN1CCCC1	7	97	100	-2
CC1CCCC(C)N1C(=O)COC(=O)c1ccccc1O (configuration not stated)	.	103	105	23
O=C1C2C3C=CC(C3)C2C(=O)N1N1CCCCC1 (configuration not stated)	-6	101	102	39
CCCn1c(=O)c(-c2nc3ccccc3c(=O)[nH]2)c(O)c2ccccc21	-7	101	112	.
CN(CCC#N)C(=O)c1nn(C)c2c1COc1ccccc1-2	11	100	102	1
O=P(O)(CN1CCOCC1)C1Cc2ccccc2C1	7	102	105	-4
O=C(CSc1nnc(COc2ccccc2Cl)n1C1CC1)c1ccc(Cl)s1	-51	116	123	14
CC1CCN(S(=O)(=O)c2ccc(C(=O)NCCCN3CCCC3=O)cc2)CC1	-28	102	97	0
COC(=O)c1ccccc1COn1c(=O)c[n+]([O-])c2ccccc21	-36	99	105	1
CS(=O)(=O)c1ccc(-c2nnn(Cc3ccccc3)n2)cc1	-82	102	102	-9
CCS(=O)(=O)N1CCc2cc(C(=O)CSc3n[nH]c(=O)n3Cc3ccccc3)ccc21	-18	101	106	6
CC(=O)NCCc1ccc(C(=O)CSc2nnc(C3CC3)n2C2CC2)cc1	-9	105	111	-11
CCOc1ccc(-c2nnc(N3CCCCC3)c3ccccc23)cc1	3	102	107	-13
O=C(COC(=O)c1cccc(O)c1)c1cccc(C(F)(F)F)c1	.	103	109	-16
CCC(C(=O)NC1CCCc2ccccc21)n1nc(C)n2c(cc3sccc32)c1=O (configuration not stated)	-5	101	101	-2
O=C(NCc1ccccc1)NS(=O)(=O)c1ccccc1Cl	-23	100	107	-5
CN(C)S(=O)(=O)N1CCC(C(=O)Nc2ccccc2)CC1	-13	105	99	-18
O=C(/C=C/c1cccs1)N(CC1CCCO1)c1nc2ccccc2s1 (configuration not stated)	-11	97	98	4
CCOC(=O)c1ccc(N=Cc2ccc(Cl)cc2)cc1	3	106	113	.
Clc1cccc(Cc2nn[nH]n2)c1	8	92	105	-4
O=c1[nH]c(NC2CCN(S(=O)(=O)c3ccc(C(F)(F)F)cc3)CC2)nc2c1CCCC2	-2	105	101	-7
Cc1onc(-c2ccccc2Cl)c1C(=O)Nc1ccccc1Cl	-23	100	113	11
O=C(CCCN1C(=O)CSc2ncccc21)N1CCc2ccccc21	2	102	101	-13
CCc1cc(C(=O)Cc2nc3ccccc3[nH]2)c(O)cc1O	-1	105	113	.
CC1(C)CC(=O)C2=C(C1)N1C(=C(C#N)C2c2cccnc2)N=C(N)c2ccccc21 (configuration not stated)	-48	101	103	13
CNC(=O)COC(=O)c1cccs1	-7	100	106	1
O=C1OC2(c3ccc(Br)cc3)C(OC(=O)C23CCCC3)C12CCCC2 (configuration not stated)	-14	109	112	.
Cc1cccc(N(CC(=O)N2CCCC2)S(C)(=O)=O)c1	-4	99	103	2
COc1ccc(C(=O)O)cc1NCc1ccncc1	26	102	101	13
N#Cc1ccccc1NC(=O)COC(=O)C12CC3CC(CC(C3)C1)C2	.	100	100	0
The list continues.
SMILES	MenB inh	PV pol inh	PV pol inh intensity	Mtb MbtI inh
CCN(C(=O)COc1ccc(OC)cc1)C1CCCCC1	.	101	102	-2
CCN(c1ccc(OC)cc1)S(=O)(=O)c1ccc2c(c1)CCN2C(=O)CCC(=O)O	-3	99	103	-9
Cc1nccn1CC(C)C(=O)O (configuration not stated)	-13	104	102	-1
CCN(CC)C(=O)c1cc2ccccc2cc1O	-27	103	100	-6
COc1ccccc1NC(=O)Cc1csc(N)n1	-9	106	110	.
S=c1n(CN2CCOCC2)nc(-c2cccs2)n1CC1CCCO1 (configuration not stated)	-14	108	106	-8
CN(C(=O)COC(=O)c1ccc(Br)c(S(=O)(=O)N2CCOCC2)c1)c1ccccc1	-16	101	105	-17
CCOC(=O)c1sc(N)c(C#N)c1COC(=O)c1c(CC)noc1C	-8	138	148	-5
Cc1ccc(C(=O)Nc2nc3c(s2)CCCC3)cc1	.	103	103	-5
O=C1CCC/C(=N/NC(=O)c2ccc(Cn3nnc(-c4ccccc4)n3)cc2)C1	-29	107	107	0
CCN1C(=O)CC(c2ccccc2)S(=O)(=O)c2ccccc21 (configuration not stated)	1	103	103	-2
COc1ccc(CCNC(=O)c2onc(C)c2Cl)cc1OC	-22	100	99	6
CN(CC(=O)Nc1ccc(F)cc1)C(=O)Cc1coc2cc3c(cc12)CCC3	-19	100	109	-1
S=C1CCN(Cc2ccccc2)c2ccccc2N1	-16	104	99	.
O=CN/N=C/c1ccc(N2CCOCC2)s1	-129	144	194	4
N#CNC(=Nc1ccccc1C(F)(F)F)N1CCCC1	12	102	112	-14
CN(C)CCN(C)C1Cc2ccccc2C1	-6	99	99	2
Cc1cc(/C=N/N2C(=O)c3ccccc3C2=O)cc(C)c1O	-41	99	97	0
CC(C)Cc1nn(-c2ccccc2)cc1/C=C1\CCC(C2CCCC2)C1=O (configuration not stated)	-30	101	107	6
CC/C=C\C/C=C\C/C=C\CCCCCCCCCCCC(=O)O	8	98&99	102&101	7
COC(=O)c1cc(=O)n(CCc2ccccc2)c(=NCCc2ccccc2)s1	-8	106	107	0
Cc1cc(=O)n2c(n1)OC(CO)C2 (configuration not stated)	-2	103	107	-8
CN=c1scc(-c2[nH]c(C)c(C(=O)OC)c2C)n1C	2	102	102	-7
Cc1ccc(N=Cc2cc3ccccc3nc2Cl)cc1Cl	9	100	218	.
CCOC(=O)c1cccc(C(=O)NC2=CC(=O)CC(C)(C)C2)c1	-27	105	110	.
CC(C)(C)C1=NNC2=C(c3nc(-c4ccc(Cl)cc4)cs3)C(N)=NC2C1=O (configuration not stated)	-21	105	114	-19
Cn1ccsc1=NC(=O)CCN1C(=O)c2ccccc2C1=O	-24	103	93	3
Cc1ccc(NC(=O)CC23CC4CC(CC(C4)C2)C3)cc1	13	100	101	1
O=C1NC(=O)C(C2SC(=O)NC2=O)S1 (configuration not stated)	-10	99	95	-117
O=C(NCSC1=NCCS1)c1ccccc1	7	102	108	-6
CCN(Cc1ccc2c(c1)OCO2)C(=O)c1oc2c(F)cccc2c1C	-24	101	101	-2
COc1ccc(-c2noc(=O)n2CC(=O)N2CCC(C)CC2)cc1	8	104	102	-5
O=[S@@]1c2ccccc2Nc2cc(C(F)(F)F)ccc21	-17	104	103	-15
CCNS(=O)(=O)c1ccc(-c2cc(C)no2)s1	-4	103	104	-1
O=C1CCC(C(=O)OCc2csc(Nc3ccccc3)n2)N1 (configuration not stated)	5	102	104	-5
FC(F)(F)c1ccc(NCC2CCCO2)nc1 (configuration not stated)	-11	103	103	-70
Cc1ccc(S(=O)(=O)N2CCCC(C(=O)N/N=C3\CCS(=O)(=O)c4ccc(F)cc43)C2)cc1 (configuration not stated)	-7	102	103	-7
CCC(=O)c1ccccc1OCCn1cnc2ccccc2c1=O	-7	103	104	-12
COc1cc2nc(NCCCN(C)Cc3ccccc3)n3nc(-c4ccccc4)nc3c2cc1OC	-9	101	103	17
O=C(CSc1ncccn1)NC12CC3CC(CC(C3)C1)C2	1	104	98	8
O=C(CSc1ccccc1)Nc1nc2c(s1)CCCC2	-15	101	106	6
O=C(NCCN1CCN(Cc2ccccc2)CC1)c1ccc2c(Cl)c3c(nc2c1)CCCC3	-14	100	108	-10
COc1ccccc1CCNC(=O)c1ccc(C)o1	-6	102	102	-11

Compounds above with four or more nitrogen atoms, in the order listed:
SMILES	MenB inh	PV pol inh	PV pol inh intensity	Mtb MbtI inh
CN1C(=O)/C(=C\c2c(Cl)nc3sccn23)N(C)C1=S	-96	118	128	11
COC(=O)c1sc(N)c(C(=O)OC)c1Cn1c(Cl)nc2c1c(=O)n(C)c(=O)n2C	-20	108	109	18
O=C(CSc1nnnn1Cc1ccccc1)Nc1ccccc1Oc1ccccc1	-23	104	103	.
Cc1cccc(NC(=O)C2CCN(c3ccc(-c4cccs4)nn3)CC2)n1	5	98	102	4
Cc1nc2c3ccccc3n3c(CCCC(=O)O)nnc3n2n1	-15	96	96	-8
CC1=NN2C(=NC(=O)C(n3nnnc3C)C2c2ccccc2)O1 (configuration not stated)	-39	100	95	-4
Cn1cnc2c1c(=O)[nH]c(=O)n2C	-11&1	104&103	100&101	-7&-12
Cn1ncnc1C(O)(c1c[nH]c2ccccc12)C(F)(F)F (configuration not stated)	-25	108	116	-11
CN(CCC#N)C(=O)c1nn(C)c2c1COc1ccccc1-2	11	100	102	1
CS(=O)(=O)c1ccc(-c2nnn(Cc3ccccc3)n2)cc1	-82	102	102	-9
CCS(=O)(=O)N1CCc2cc(C(=O)CSc3n[nH]c(=O)n3Cc3ccccc3)ccc21	-18	101	106	6
CC(=O)NCCc1ccc(C(=O)CSc2nnc(C3CC3)n2C2CC2)cc1	-9	105	111	-11
CCC(C(=O)NC1CCCc2ccccc21)n1nc(C)n2c(cc3sccc32)c1=O (configuration not stated)	-5	101	101	-2
Clc1cccc(Cc2nn[nH]n2)c1	8	92	105	-4
O=c1[nH]c(NC2CCN(S(=O)(=O)c3ccc(C(F)(F)F)cc3)CC2)nc2c1CCCC2	-2	105	101	-7
CC1(C)CC(=O)C2=C(C1)N1C(=C(C#N)C2c2cccnc2)N=C(N)c2ccccc21 (configuration not stated)	-48	101	103	13
S=c1n(CN2CCOCC2)nc(-c2cccs2)n1CC1CCCO1 (configuration not stated)	-14	108	106	-8
O=C1CCC/C(=N/NC(=O)c2ccc(Cn3nnc(-c4ccccc4)n3)cc2)C1	-29	107	107	0
N#CNC(=Nc1ccccc1C(F)(F)F)N1CCCC1	12	102	112	-14
CC(C)(C)C1=NNC2=C(c3nc(-c4ccc(Cl)cc4)cs3)C(N)=NC2C1=O (configuration not stated)	-21	105	114	-19
COc1cc2nc(NCCCN(C)Cc3ccccc3)n3nc(-c4ccccc4)nc3c2cc1OC	-9	101	103	17
O=C(NCCN1CCN(Cc2ccccc2)CC1)c1ccc2c(Cl)c3c(nc2c1)CCCC3	-14	100	108	-10
